Compound activity deposited in PubChem BioAssay by several laboratories.
MT1-MMP act inh – blockers of MT1-MMP proenzyme processing, primary screen, HT1080 RFP-PRO-GFP cells, GFP/RFP fluorescence; GFP/RFP ratio fluorescence, overnight; percent of plate control window, DMSO zero; GFP/RFP ratio change, % at 20 µM; hit rate 0.061% among 360,000; Matrix metalloproteinase-14 (Homo sapiens), P50281; AID 651647, 2012;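 active means GFP/RFP ratio change of at least 30% with cell ATP level not reduced by more than half and red fluorescence within 50% of control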; further: strong numbers were not always called active
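system = RFP-PRO-GFP reporter HT1080 cells | dosing = 20 µM single dose, 1% DMSO | timing = overnight cell settling, then overnight compound exposure, 37 °C, 5% CO2 | read-out basis = GFP/RFP fluorescence ratio | controls = DMSO and RFP-L50D-GFP cell wells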
PABP polyA inh – PABP poly(A) RNA binding inhibitors, primary screen, biochemical, fluorescence polarization, uHTS; hit rate 1% among 290,000; Polyadenylate-binding protein 1 (Homo sapiens), P11940; inhibition, % at 35 µM;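 active means 50% or more with normal probe brightness, or confirmed in later tests; inconclusive means above 50% with abnormal brightness, or retests that disagree; inactive means below 50% or failed in later tests; about a fifth of its hits are not listed in these tables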;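 further: calls also rest on retests at 20 µM and on dose response follow-up; controls were probe without protein and protein plus probe with vehicle; some compounds called inactive have numbers as strong as hits; many hits fall short of the cut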
Rce1 inhib – yeast Rce1p protease inhibitors, primary screen, biochemical, fluorescence, cell-free homogeneous. CAAX prenyl protease 2 (Saccharomyces cerevisiae (strain ATCC 204508 / S288c)), Q03530. yeast membranes, quenched prenylated peptide cleavage fluorescence. calls only. hit rate 0.27% among 290,000. AID 2563, 2010;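 active means fall in fluorescence gain of 50% or more versus controls, with final raw signal at or below 3038400; inconclusive means same 50% fall but final raw signal above 3038400; inactive means fall in fluorescence gain under 50%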;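 further: plate controls were neutral control wells for no effect and wells lacking membranes for full effect; tested at 10 µM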
Target sequence (Q03530 whole entry, looked up): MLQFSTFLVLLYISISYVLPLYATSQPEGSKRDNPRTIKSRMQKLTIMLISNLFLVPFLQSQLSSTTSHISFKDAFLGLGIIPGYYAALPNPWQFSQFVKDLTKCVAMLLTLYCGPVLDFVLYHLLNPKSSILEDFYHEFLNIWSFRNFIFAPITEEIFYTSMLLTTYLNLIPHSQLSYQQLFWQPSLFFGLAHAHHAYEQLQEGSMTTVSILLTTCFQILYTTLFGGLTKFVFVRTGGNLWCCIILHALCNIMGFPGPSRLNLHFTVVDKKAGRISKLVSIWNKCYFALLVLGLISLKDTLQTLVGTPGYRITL
UUG fidelity – modulators of yeast start codon fidelity, primary screen, whole organism, S. cerevisiae, single point, plate reader; S. cerevisiae UUG-firefly luciferase reporter, luminescence/redox ratio; activity score, % at 18.7 µM; hit rate 0.13% among 350,000; AID 602363, 2012;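 active means replicate mean at a twofold rise or more, about +100% in these data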;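 further: firefly luciferase made from a UUG start codon reports start codon fidelity; reporter light over untreated wells divided by growth signal over untreated wells; some hits fall short of that in this replicate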
HIV Env fusion – inhibitors of HIV-1 Env-driven cell-cell fusion, primary screen, HeLa-JRFL effector, CEM21 target cells, luciferase. hit rate 1.1% among 360,000. AID 651610, 2012. inhibition, % at 12.3 µM;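 active means mean replicate inhibition score of at least 50 and every replicate individually at or above 50; inconclusive means only one of the two criteria met; inactive means mean below 50 and not all replicates reaching 50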;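 further: 0% = plate neutral controls and 100% = maraviroc near 300 nM; one replicate is shown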
CSC inhib – cancer stem cell viability inhibitors, primary screen, luminescence | inhibition, % at 7.5 µM | hit rate 1.1% among 300,000 | cancer stem cell-like cells viability | AID 2717, 2010;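 active means mean at 75% or more and at least half the replicates too; inconclusive means mean and replicates disagree; tested in HMLE shEcad cells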;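 further: 0% = median of negative and 100% = median of positive control wells; the first replicate is given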
eIF4H inh – human eIF4H binding inhibitors, primary screen, translation initiation inhibitor project, biochemical, uHTS, fluorescence polarization. inhibition, % at 35 µM. Eukaryotic translation initiation factor 4H (Homo sapiens), Q15056. eIF4H fluorescence polarization binding assay. hit rate 0.94% among 290,000;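 active means 50% or more with normal probe brightness, or confirmed in later tests; inconclusive means above 50% with abnormal brightness, or retests that disagree; inactive means below 50% or failed in later tests; about a fifth of its hits are not listed in these tables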;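 further: calls also rest on retests at 20 µM and on dose response follow-up; 0% = protein and probe with vehicle and 100% = probe without protein; strong numbers were not always called active; many hits fall short of the cut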
eIF4H inh retest – second read-out of eIF4H inh, no call of its own (marks repeat the call); inhibition, %; compound at 20 µM; confirmation average;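 mean of two retest wells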
PABP polyA inh retest – also measured in PABP polyA inh; calls as there; inhibition, %; compound at 20 µM; confirmation repeats;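 mean of two retest wells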
MT1-MMP act inh RFP – further read-out of MT1-MMP act inh, marked with its call; RFP signal change, %; measured here: RFP expression control read;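 0 = vehicle wells; hits needed this value within 50% of zero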
An asterisk follows results filed as active; i = inactive; ? = inconclusive; / = not tested or not shown.

SMILES | MT1-MMP act inh | MT1-MMP act inh RFP | PABP polyA inh | Rce1 inhib | UUG fidelity | HIV Env fusion | CSC inhib | eIF4H inh | others
Cc1nn(C)c(Cl)c1CN1CCN(C2CCCCC2)C(CCO)C1 (stereo unspecified) | 4 | -3 | 0 | i | / | 9 | 2 | 0
Cc1cnc(NC(=O)C2COc3ccccc3O2)s1 (stereo unspecified) | -2 | -4 | 4 | i | -73 | / | / | 8
Cc1c(NC(=O)CC(C)C)c(=O)n(-c2ccccc2)n1C | 6 | 6 | 79* | i | -11 | 0 | 10 | -1 | eIF4H inh retest=34;PABP polyA inh retest=60*
COc1ccc(N2CCCn3c2nc2c3c(=O)n(Cc3ccc(F)cc3)c(=O)n2C)c(OC)c1 | 4 | 3 | 2 | / | 1 | 5 | / | -2
COC(=O)C/C=C/N(Cc1ccccc1OC)S(=O)(=O)CCl | 5 | 6 | / | / | -14 | -36 | / | /
Cc1cc(=O)n2[nH]c(COc3ccccc3)nc2n1 | 11 | 6 | 3 | i | -3 | / | -9 | -6
O=C(c1cccs1)N1CCN(CCc2ccccc2)CC1 | 0 | 2 | 1 | i | -18 | 4 | -8 | 1
C[C@@H]1Cn2cnc(C(=O)Nc3ccccc3)c2C(=O)N1 | 0 | -7 | / | / | 1 | 6 | / | /
Cc1ccc(C(=O)NCCc2nnc3ccc(SCC(=O)Nc4ccccc4F)nn23)cc1 | -5 | -1 | 4 | i | -15 | -10 | -16 | -1
CCOc1ccc(C(=O)Nc2nc3ccccc3[nH]2)cc1OCC | 4 | -12 | -1 | i | / | -49 | / | 5
CC(=O)c1ccc(OCC(=O)N(C2CCCCC2)C2CCS(=O)(=O)C2)cc1 (stereo unspecified) | 4 | 1 | / | i | / | -24 | -3 | /
CCc1c(C)nc2ncnn2c1NCCc1ccc(OC)cc1 | 1 | -26 | -1 | i | -12 | / | 47 | -20
COCCNC(=O)CNS(=O)(=O)c1ccc2nc(C)sc2c1 | 0 | 1 | -8 | i | -8 | / | -7 | -8
Cc1ccc(/C=N/n2c(-c3ccccn3)n[nH]c2=S)o1 | 0 | -2 | -2 | i | / | 0 | -10 | 13
O=C(c1ccccc1)c1ccccn1 | 3 | 7 | 0 | i | / | 1 | -7 | -5
O=C(COC(=O)c1ccccc1NC(=O)c1ccco1)NC1CCS(=O)(=O)C1 (stereo unspecified) | 1 | 1 | 4 | i | / | -7 | 4 | -1
O=C(CCCCCn1c(SCC(=O)c2ccccc2)nc2ccccc2c1=O)NCc1ccco1 | -4 | -2 | 6 | i | 0 | -45 | 14 | -6
Cc1noc(NS(=O)(=O)c2ccc(NC(=O)c3ccc(OC(C)C)cc3)cc2)c1C | 4 | 2 | 0 | i | / | -7 | -1 | 2
COc1ccccc1OCCCCn1c(C(C)O)nc2ccccc21 (stereo unspecified) | 2 | -8 | 4 | i | -18 | 0 | -6 | -2
Cc1ccc(C)c(-n2nnnc2SCC(=O)NCC2CCCO2)c1 (stereo unspecified) | -2 | 3 | / | / | 0 | / | 1 | /
COc1ccc(N2CC(C(=O)Nc3ccc(S(=O)(=O)N4CCCCC4)cc3)CC2=O)cc1 (stereo unspecified) | 1 | 0 | 14 | i | -1 | 0 | -11 | 2
O=C(NC(=S)NCC1CCCO1)c1ccc(Cl)cc1 (stereo unspecified) | 3 | 0 | 3 | i | / | -10 | -19 | 5
COc1ccc(NC(=O)C2CC(=O)N(Cc3ccco3)C2)cc1Cl (stereo unspecified) | -3 | -1 | / | / | -11 | -4 | / | /
CN(C)S(=O)(=O)Oc1cccc(C(=O)Nc2ccc([N+](=O)[O-])cc2)c1 | 1 | -20 | -12 | i | -18 | -9 | -7 | 0
Cc1ccc(C(=O)Nn2cnc3ccccc3c2=O)cc1C | -2 | -1 | -1 | i | 4 | -46 | -2 | 2
CC1CCCCN1CCCn1c(=S)[nH]c2ccccc2c1=O (stereo unspecified) | 10 | 2 | 13 | i | -17 | / | -10 | 2
Cc1cc(C)c2nncn2n1 | 1 | 5 | 6 | i | -19 | -5 | -13 | -2
COc1nn(-c2ccccc2)c(=O)c(Cl)c1Cl | -9 | -26 | 11 | i | -8 | -407 | 1 | 1
COc1ccc(-n2c(=O)c3c4c(sc3n3c(=S)[nH]nc23)COC(C(C)C)C4)cc1 (stereo unspecified) | -2 | 0 | 10 | i | -17 | 8 | -19 | -11
O=C1CCc2cc(NS(=O)(=O)c3ccccc3)cc3c2N1CCC3 | 7 | 3 | / | i | / | 5 | 3 | /
O=C(CCc1nnc(-c2ccc3c(c2)OCO3)o1)N1CCC(c2ccc(F)cc2)C1 (stereo unspecified) | -2 | -2 | 6 | i | / | -21 | / | 0
COC(=O)CN(c1cccc(OC)c1)S(C)(=O)=O | 5 | -1 | -8 | i | -6 | / | -14 | -14
N#CCCN(C(=O)COC(=O)c1ccc2c(c1)OCO2)c1ccccc1 | 5 | -5 | / | / | -11 | / | -14 | /
CCOC(=O)c1[nH]cnc1C(=O)Nc1cccc(OC)c1 | 0 | -3 | -6 | i | / | -9 | 6 | -1
Cc1cccc(C)c1NC(=O)COC(=O)c1ccc2c(c1)OCO2 | 4 | 7 | 0 | i | / | 5 | / | 6
NC(=O)c1nc(C2CCCCC2)nc2c1[nH]c(=O)n2-c1ccc(F)cc1 | 1 | 0 | 3 | i | -4 | -10 | 1 | -4
COC(=O)c1cc(NC(=O)Cc2coc3cc(OC)ccc23)cc(C(=O)OC)c1 | -2 | 4 | -7 | i | -16 | -24 | 8 | -5
O=C(CCNC(=O)c1ccc([N+](=O)[O-])cc1)Oc1ccc(F)c(F)c1 | 0 | 4 | / | / | 5 | / | 9 | /
CCCCc1nnc(NC(=O)C(=O)OCC)s1 | -4 | -1 | -2 | i | -25 | -17 | -12 | 2
CCOC(=O)C1=C(N)OC2=C(C(=O)CCC2)C1c1sccc1C (stereo unspecified) | -1 | 0 | 76 | i | / | 11 | -9 | 1 | eIF4H inh retest=-11;PABP polyA inh retest=1
O=C(COC(=O)CNC(=O)c1cccc(OC(F)F)c1)NNC(=O)c1ccccc1 | 0 | 2 | / | / | -18 | -11 | / | /
N#CCCN(C(=O)CSc1ncccn1)c1ccc2c(c1)OCCO2 | 3 | 8 | / | / | -6 | / | -16 | /
Clc1cc2c(c(CSc3nc4ccccc4n4cccc34)c1)OCOC2 | -1 | 5 | -9 | i | 7 | -2 | 1 | -8
CCOc1ccc(/C=N/NC(=O)c2c(C)n(C)c3ccc(OC)cc23)cc1 | 4 | -8 | 13 | i | / | / | 6 | -4
O=C(NC(=S)Nc1ccccc1N1CCCC1)c1ccco1 | -5 | 4 | ? | i | -18 | -9 | -3 | ?
CC(=O)NCCC(=O)Nc1nc(-c2ccc3c(c2)OCCO3)cs1 | -2 | -1 | 6 | i | -5 | -4 | 9 | 2
NC(N)=NC1=NC(=O)C(Cc2ccccc2Cl)S1 (stereo unspecified) | 0 | 2 | 2 | i | / | -20 | 2 | 6
COc1cccc(C2C(C(=O)c3sc(C)nc3C)=C(O)C(=O)N2CCN2CCOCC2)c1OC (stereo unspecified) | 0 | 5 | 12 | i | -11 | / | -7 | -13
COC(=O)c1cc(OCC(=O)NC2CCCc3ccccc32)cc(C(=O)OC)c1 (stereo unspecified) | 0 | -1 | -1 | i | 3 | -4 | -6 | -12
COc1ccc(NC(=O)CSc2nnc(NC(=O)c3ccccc3C(=O)O)s2)cc1 | -4 | 1 | 0 | i | 2 | -10 | -6 | 2
O=C(Oc1ccccc1/C=C\C(=O)c1cc2ccccc2o1)c1ccccc1 | -5 | -10 | 2 | i | / | -226 | 60 | -6
O=c1oc2ccccc2c(O)c1C=NCc1ccccn1 | -10 | -2 | 10 | / | -36 | / | -6 | -2
O=C(OCc1ccccc1)c1ccc(Br)o1 | -4 | -1 | 7 | i | -6 | / | -2 | -1
O=C(CN1C(=O)c2cccnc2Oc2ccc(Cl)cc21)N1CCOCC1 | 2 | 4 | / | i | / | -18 | -10 | /
COc1ccc(CCNC(=O)COC(=O)Cc2cc(OC)c(OC)c(OC)c2)cc1 | 0 | 3 | 1 | i | / | 15 | -1 | 30
CCN(CC)CCCNC(=O)c1nn2c(C(F)(F)F)cc(-c3ccccc3)nc2c1Cl | 1 | -2 | 0 | i | -2 | 20 | 0 | -1
CC(C)(C)c1ccc(OCCC(=O)OCC(=O)NC2CCCCC2)cc1 | 4 | 7 | / | i | / | 3 | -20 | /
O=C1CCC(=O)N1N1C(=O)C2C3c4ccccc4C(c4ccccc43)C2C1=O (stereo unspecified) | -3 | 2 | -4 | i | / | -6 | 7 | -8
COc1ccc(Nc2ccc(N3C(=O)CCCC3=O)cc2[N+](=O)[O-])cc1OC | 14 | 4 | -2 | i | -14 | -2 | 9 | -1
CCC(=O)/C=C1/Sc2ccc(OC)cc2N1CC | 2 | 3 | 3 | i | -15 | / | 23 | 7

Continued:
SMILES | MT1-MMP act inh | MT1-MMP act inh RFP | PABP polyA inh | Rce1 inhib | UUG fidelity | HIV Env fusion | CSC inhib | eIF4H inh | others
CCOc1ccc(NC(=O)COC(=O)Cc2ccc(S(=O)(=O)N3CCOCC3)s2)cc1 | -3 | 6 | 0 | i | -8 | / | -21 | 6
NC(=O)c1ccc(-n2nnnc2Oc2ccccc2C(=O)N2CCOCC2)cc1 | 1 | 4 | 0 | i | -20 | / | -3 | 14
CCNC(=O)CN(Cc1ccccc1)S(=O)(=O)c1ccccc1 | 4 | 2 | 0 | i | -24 | / | -10 | 1
Cc1ccc(CSc2nnc(-c3ccccn3)n2C)cc1 | -4 | 4 | -6 | i | -26 | -91 | -20 | -8
COc1ccc(CCNCC(=O)Nc2ccc(C)c(Br)c2)cc1OC | -1 | 1 | 0 | i | -11 | 5 | -6 | 13
NC(=O)C1Cc2ccccc2CN1C(=O)c1cc(C2CC2)nn1-c1ccccc1 (stereo unspecified) | -1 | 2 | / | / | 3 | / | -1 | /
CCOc1ccc(S(=O)(=O)N2CCCC(C(=O)NC3CC3)C2)cc1Cl (stereo unspecified) | -2 | -1 | / | i | -10 | -8 | -8 | /
CCn1c(CNC(=O)Cc2ccc(OC)cc2)nnc1SCC(=O)Nc1ccc(C(=O)O)cc1 | -4 | -2 | -14 | i | / | 3 | -7 | -5
O=C(CCNC(=O)c1ccccc1Cl)Nc1nccs1 | 0 | 4 | -6 | i | -14 | / | -26 | 9
CN1C(=O)/C(=C/c2ccccc2F)Sc2ccc(C(=O)N3CCCC3)cc21 | 3 | -7 | -2 | i | -24 | 2 | -14 | 0
COc1ccc(C(NC(=O)C2CCN(CCOc3ccccc3)CC2)c2ccccn2)cc1 (stereo unspecified) | 0 | 7 | / | / | -17 | 23 | / | /
